D2 potentiator: positive allosteric modulators of human D2 dopamine receptor; DiscoveRx D2 beta-arrestin cells, luminescence, 90 min; 100% = 57 uM dopamine signal; AID 624464; potentiation, % (test concentration not listed); P14416; hit rate 0.23% among 360,000; active = potentiation of 50% or more; inconclusive = 30% to 50%; inactive = 30% or less;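 also: compound concentration not given in the record; tested on top of an EC20 dose of dopamine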
Target sequence (P14416 whole entry, looked up): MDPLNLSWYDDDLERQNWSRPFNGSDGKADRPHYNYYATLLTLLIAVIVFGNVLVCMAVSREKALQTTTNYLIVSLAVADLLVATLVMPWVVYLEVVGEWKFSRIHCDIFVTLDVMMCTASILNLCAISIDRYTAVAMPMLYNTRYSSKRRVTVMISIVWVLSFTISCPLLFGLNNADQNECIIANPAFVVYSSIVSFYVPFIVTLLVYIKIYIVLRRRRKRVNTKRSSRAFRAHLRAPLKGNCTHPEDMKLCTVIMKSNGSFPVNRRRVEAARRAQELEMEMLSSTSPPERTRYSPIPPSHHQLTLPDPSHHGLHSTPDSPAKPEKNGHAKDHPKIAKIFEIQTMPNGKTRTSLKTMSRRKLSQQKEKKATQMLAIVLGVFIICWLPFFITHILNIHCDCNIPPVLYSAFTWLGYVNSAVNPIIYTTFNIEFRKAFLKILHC
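D2 cells co-treated with compound plus 50 nM dopamine (EC20) for 90 min at 37 deg C to detect potentiation. Beta-arrestin recruitment was read as enzyme-fragment luminescence after 1 h at ambient temperature. Full response was set by 57 uM dopamine.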
Six1-Eya2 blk: inhibitors of human Six1/Eya2 interaction | activity change, % (no concentration beside the values) | Q15475+O00167 | AlphaScreen GST-Six1/His-Eya2 binding, biochemical; active compounds read low; control for the full effect not named in the record | hit rate 0.56% among 360,000; in the data active = activity change below about -65%; inconclusive = about -30% to -65%; inactive = above about -30%; also: % is scaled to controls: 0 for no effect and ±100 for the full control effect
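Compounds are tested against tagged Six1 and Eya2 proteins bridged by glutathione donor and nickel acceptor beads; after a one-hour incubation at 37 °C without light, AlphaScreen emission is recorded.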
D2 agonist: agonists of human D2 dopamine receptor (beta-arrestin). P14416. DiscoveRx PathHunter D2 beta-arrestin, luminescence, 90 min; 100% = 57 uM dopamine signal. activation, % (no concentration beside the values). hit rate 0.084% among 360,000. AID 624465; in the data active = activation above about 40%; inconclusive = about 15% to 40%; inactive = below about 15%; also: compound concentration not given in the record; the text of the record calls up to 30% inactive
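DiscoveRx PathHunter D2 beta-arrestin cells (2,100/well) attached overnight, then compound-stimulated 90 min at 37 C in HBSS/10 mM HEPES/0.1% Tween-20 buffer; beta-galactosidase complementation read by luminescence after 1 h at ambient temperature. Dopamine 57 uM final (EC100) as control.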
TRPML1 agonist: human mucolipin-1 channel agonism; Q9GZU1; TRPML1-expressing cells, Ca2+ dye fluorescence, FDSS; host cell line not named in the record; reference of the full effect not given here; activation, % (test concentration not listed); hit rate 0.12% among 410,000; AID 624414; in the data active = activation above about 50%; inconclusive = about 30% to 50%; inactive = below about 30%; also: 0% is about no effect; the text of the record puts the active cut at 80%
Target sequence (Q9GZU1 whole entry, looked up): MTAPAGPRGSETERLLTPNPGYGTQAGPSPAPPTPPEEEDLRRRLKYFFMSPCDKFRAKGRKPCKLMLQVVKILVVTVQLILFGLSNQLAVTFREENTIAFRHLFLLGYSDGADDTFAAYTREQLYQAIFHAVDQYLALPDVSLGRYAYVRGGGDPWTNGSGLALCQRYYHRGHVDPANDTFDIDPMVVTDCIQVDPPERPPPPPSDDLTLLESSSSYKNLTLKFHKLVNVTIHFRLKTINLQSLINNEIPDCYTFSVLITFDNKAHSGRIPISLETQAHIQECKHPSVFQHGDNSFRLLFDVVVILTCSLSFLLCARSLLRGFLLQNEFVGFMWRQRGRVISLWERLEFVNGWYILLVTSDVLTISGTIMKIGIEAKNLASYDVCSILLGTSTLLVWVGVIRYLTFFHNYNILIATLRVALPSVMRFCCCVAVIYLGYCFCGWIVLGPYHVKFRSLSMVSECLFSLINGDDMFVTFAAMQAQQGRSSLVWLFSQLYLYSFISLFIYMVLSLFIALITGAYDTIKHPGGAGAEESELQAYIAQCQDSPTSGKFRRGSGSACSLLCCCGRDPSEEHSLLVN
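Tetracycline-induced TRPML1-DL cells are seeded and incubated overnight before loading with a no-wash Ca2+ dye and quencher. Agonist activity is taken from the 110 s fluorescence read following compound pin-transfer on an FDSS, before EC80 54-4 challenge.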
CtBP-E1A inh: CtBP/E1A binding inhibition | AlphaScreen GST-E1A/His-CtBP binding, 1536-well; active compounds read low; control for the full effect not named in the record | activity change, % (test concentration not listed) | hit rate 0.49% among 340,000 | AID 651724; in the data active means activity change below about -65%; inconclusive means about -30% to -65%; inactive means above about -30%; also: % is scaled to controls: 0 for no effect and ±100 for the full control effect
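Steps: dispense buffer (Tris pH 8.0, NaCl 300 mM, TCEP 1 mM, BSA, Tween 20); add 5X protein mix (GST-E1A, His-CtBP, 125 nM each); pin 23 nL compound; 2 h at 37 °C, dark; add 5X beads (50 ug/mL); 1 h; read.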
PINK1 expr mod: changes PINK1 expression | AID 624263 | hit rate 0.2% among 410,000 | Potency, µM (highest dose often 76.6 µM), without a hit: top-dose activation (PINK1 increase), actives largely listed as activators | PINK1 immunofluorescence, high-content cytometry, 24 h; active = well fitted activation curve with a large enough effect; inconclusive = small, poorly fitted or top-dose-only effect; inactive = flat fitted curve, though single readings scatter; cell line not stated here;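 also: potency is read from the fitted curve at half-maximal effect; % of control where 0% means no effect; nearly all actives have a fitted effect of over 65% in size; a mitochondrial uncoupler was the plate control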
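Stable cell line treated 24 h with compounds at 5 concentrations (CCCP controls), then fixed and immunostained for PINK1 plus nuclear and cell stains; PINK1 immunofluorescence quantified by laser-scanning microplate cytometry.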
* marks the source's active call; other numbers are inactive results; ? = inconclusive; nt = no result given; & = joins results of further samples; [ ] = remark or other dose.

SMILES,CtBP-E1A inh,PINK1 expr mod,D2 potentiator,TRPML1 agonist,Six1-Eya2 blk,D2 agonist
COc1ccccc1N1CC(C)(C)C(=O)N(C(=O)c2ccc(Cl)cc2)C1=S,11.5,19.1%,4.6,-0.5,0.6,-2.4
O=C(C[C@H]1C/C=C\CC[C@H](Cc2ccc(F)cc2)C(=O)OCCNC1=O)NCCO,nt,0.6%,-10.3,-0.3,1.2,-2.8
Cc1cccc(N(CC(N)=O)C2SC(=O)N(c3ccccc3)C2=O)c1 (stereo unspecified),5.4,12.2%,-7.4,2.3,5.7,-1.3
Cc1cccc2c1cnn2C(=O)Nc1ccccc1Cl,1.2,0.5%,-3.6,-0.8,4.9,-2.2
O=C(NC(=S)N1CCCCC1)c1csc([N+](=O)[O-])c1,0.2,-1.7%,-1.6,0.0,1.0,-0.2
CCOCCCNC(=O)NC(=O)CN1CCN(S(=O)(=O)c2ccc3c(c2)OCCO3)CC1,nt,-1.1%,-9.7,1.0,5.0,7.9
O=C(O)CC(NC(=O)C1CCCCC1)c1ccc(OC2CCCC2)cc1 (stereo unspecified),1.0,1.1%,1.2,-0.2,5.0,-2.9
Cc1cc(C)nc(N2CCCC(C(=O)NCCc3ccccc3F)C2)n1 (stereo unspecified),0.3,13.5%[38.3 µM],-3.7,1.7,0.0,3.6
COc1ccc(OC)c(/C=C/C(=O)OCC(=O)Nc2ccc3c(c2)OCCO3)c1,-10.7,14.7%,-18.8,1.7,12.0,-5.1
O=C(c1ccc([N+](=O)[O-])cc1)N(Cc1cccs1)C1CCS(=O)(=O)C1 (stereo unspecified),-4.7,-2.6%,14.7,0.2,6.4,0.1
Cc1ccc(NC(=O)N2CCCC(c3nc(-c4ccc(F)cc4)no3)C2)cc1 (stereo unspecified),7.9,0.9%,-8.3,1.7,12.3,-0.3
COc1ccc(-c2nnn(CC(=O)OC3CCCCC3)n2)cc1OC,6.2,-0.1%,-0.7,2.1,9.0,-0.6
Cc1ccc(N2CC(C(=O)N3CCCCC3)CC2=O)cc1C (stereo unspecified),5.2,-0.1%,-4.9,0.0,24.1,-7.8
COc1ccccc1NS(=O)(=O)c1cc(NC(=O)c2ccccc2[N+](=O)[O-])ccc1N1CCOCC1,-13.6,-3.6%,-4.4,-0.4,-8.6,0.2
O=C(COC(=O)/C=C/c1ccc(F)cc1)Nc1cccc(S(=O)(=O)N2CCCC2)c1,nt,2.3%,15.2,4.8,-18.2,11.7
COc1ccc(NC(=O)CN2C(=O)c3ccccc3Sc3ccc(C(=O)N4CCOCC4)cc32)c(OC)c1,0.0,-0.9%&0.0%,0.1,0.8&-0.1,10.1,1.6
CCCC(=O)N(c1ccc(C(=O)O)cc1)c1nc(-c2ccccc2)c(C)s1,nt,-0.2%,-2.6,0.5,5.7,-4.4
COc1ccccc1C(=O)NCCOc1ccc(C)c(C)c1,-3.7,1.1%,-3.1,0.2,3.4,-4.7
CCN(CC)S(=O)(=O)c1cc(C)ccc1NC(=S)Nc1cccnc1,2.7,?,1.3,0.1,-3.3,8.4
CCn1c(=O)c([N+](=O)[O-])c(NCCCn2ccnc2)c2ccccc21,-24.4,0.7%,-12.5,0.0,?,-10.1
CCOC(=O)C1CCN(c2ccc([N+](=O)[O-])cc2S(=O)(=O)N2CCOCC2)CC1,-8.8,0.7%,-12.9,2.2,-5.8,-1.7
CCc1cc2c3c(c(=O)oc2cc1OCC(=O)OC)CCCC3,nt,1.3%,5.5,nt,-0.9,0.4
CC12CCC(C(=O)N3CCCCC3)(CC1=O)C2(C)C (stereo unspecified),-0.8,1.1%,5.2,-0.8,0.6,1.7
COc1cccc(NC(=O)CSc2cccc[n+]2[O-])c1,nt,2.3%,-3.2,-2.1,-5.8,-0.9
Cc1noc(NS(=O)(=O)c2ccc(NC(=O)c3nn(-c4ccc(F)cc4)ccc3=O)cc2)c1C,21.7,-1.5%,3.7,-0.8,10.6,-3.5
CCC(=O)Nc1ccc(NC(=O)CCc2ccccc2)cn1,5.4,-0.2%,-2.4,0.6,-2.3,3.4
O=C1N[C@@H](Cc2ccccc2)C(=O)N2CCCC12 (stereo partly specified),2.0,0.3%,-6.3,-0.6,8.4,-3.3
CCCS(=O)(=O)N1CCN(S(=O)(=O)c2ccccc2[N+](=O)[O-])CC1,1.4,6.0%,-5.8,0.0,1.4,-2.1
O/N=C1/CC/C(=N\O)c2nn(-c3ccccc3)nc21,-13.8,-0.9%,2.8,-0.1,-9.1,-1.2
O=C(c1ccco1)N1CCN(C(=O)c2[nH]c(C(F)(F)F)nc2-c2ccccc2)CC1,-4.5,5.9%,1.9,0.2,-11.4,3.5
CC12CCC(=O)N1C(C(=O)NCCc1ccc(S(N)(=O)=O)cc1)CS2 (stereo unspecified),-5.1,2.8%,-5.3,-0.3,1.4,-3.0
COC(=O)c1cn(-c2ccccc2)nc1C(=O)OC,7.1,-5.1%[38.3 µM],-4.1,-0.7,3.3,-2.7
O=C(C1CCN(S(=O)(=O)c2cnc[nH]2)CC1)N1CCN(c2ncccn2)CC1,3.6,0.6%,-0.2,-0.3,-1.2,-3.8
CC(C)NC(=O)CSc1nc2ccccc2n1-c1ccccc1,48.6,23.8%[38.3 µM],-8.0,1.6,14.7,-2.7
CCOc1ccc(NC(=O)C2CC(=O)N(c3ccccc3F)C2)cc1 (stereo unspecified),-22.2,-1.6%,-5.0,-0.6,3.7,-2.3
O=C(CNC(=O)c1ccco1)NNC(=O)c1cccc(Cl)c1,7.6,0.2%,-0.1,-0.4,4.8,-1.6
CCOC(=O)c1c(/N=C/c2ccc(C)cc2O)sc2c1CCC2,-13.8,0.9%,-12.1,2.4,5.1,1.6
O=C(c1cc(Br)ccc1Cl)N1CCN(c2ccccn2)CC1,-0.2,1.9%,-2.6,0.9,2.5,-2.9
O=C(Nc1ccccc1)c1ccc(NCCc2ccccc2)c([N+](=O)[O-])c1,5.5,?,-12.8,0.4,3.6,0.1
CCOC(=O)c1ccc(-n2cc(C(=O)c3cccnc3)nn2)cc1,17.6,-1.2%,-3.4,-0.5,11.0,-1.0

Reformatted with each value named: part of the list above
> CCOC(=O)c1c(/N=C/c2ccc(C)cc2O)sc2c1CCC2
  CtBP-E1A inh: -13.8
  PINK1 expr mod: 0.9%
  D2 potentiator: -12.1
  TRPML1 agonist: 2.4
  Six1-Eya2 blk: 5.1
  D2 agonist: 1.6
> O=C(c1cc(Br)ccc1Cl)N1CCN(c2ccccn2)CC1
  CtBP-E1A inh: -0.2
  PINK1 expr mod: 1.9%
  D2 potentiator: -2.6
  TRPML1 agonist: 0.9
  Six1-Eya2 blk: 2.5
  D2 agonist: -2.9
> O=C(Nc1ccccc1)c1ccc(NCCc2ccccc2)c([N+](=O)[O-])c1
  CtBP-E1A inh: 5.5
  PINK1 expr mod: ?
  D2 potentiator: -12.8
  TRPML1 agonist: 0.4
  Six1-Eya2 blk: 3.6
  D2 agonist: 0.1

(cont.)
SMILES,CtBP-E1A inh,PINK1 expr mod,D2 potentiator,TRPML1 agonist,Six1-Eya2 blk,D2 agonist
Cc1ccccc1S(=O)(=O)NCC1CCCO1 (stereo unspecified),5.9,0.4%,-0.6,0.4,-1.3,-1.0
COc1cc(Cl)c(C)cc1NC(=O)CCCN1C(=O)CCC1=O,2.7,1.4%,-30.9,-0.1,-3.6,-3.4
COc1cccc(C(=O)Nc2ccc(N(C)C)cc2)c1OC,-14.0,-1.2%,22.0,-0.8,-16.7,0.1
COc1ccccc1C(=O)NC(CCSC)C(=O)N1CCN(C(C)=O)CC1 (stereo unspecified),nt,0.0%,-3.4,-0.7,3.2,-2.4
COCCN(CC(=O)Nc1cccc(C)c1C)C(=O)c1oc2ccccc2c1C,1.1,1.6%,-2.2,1.6,-2.9,2.0
COCCNC(=O)c1ccc(CN2CCc3ccccc3C2)cc1,-1.4,0.1%,-21.9,1.4,14.2,-0.1
COc1ccc(CNC(=O)Nc2ccc(C)cc2)cc1,7.0,-0.8%,-5.9,-0.7,8.9,0.0
COc1ccc(F)cc1CN1CCN(C(=O)CCC(=O)Nc2nnc(C(C)C)s2)CC1,-1.9,0.1%,-52.9,-0.5,-1.9,-2.5
Nc1nc(SCC(=O)NCc2ccc3c(c2)OCO3)n[nH]1,-6.3,0.9%,-1.7,0.3,2.9,-1.8
COc1cc(O)cc2occ(-c3ccc(O)cc3)c(=O)c12,-10.4,0.5%,-25.5,nt,-15.2,-7.5
CCOC(=O)c1ccccc1NC(=O)CN1CCC(n2nnc3cc(C(F)(F)F)ccc32)CC1,4.0,1.3%,2.1,-0.6,0.6,-3.4
O=C(c1ccoc1)N1CCCC(N2CCN(c3cccc(Cl)c3)CC2)C1 (stereo unspecified),1.9,1.2%,-25.3,-0.1,-0.4,1.5
COc1ccc([C@H]2CC(=O)C=C(c3ccc(CNC(=O)OC(C)(C)C)cc3)C2)cc1,-4.4,-1.3%,1.9,-1.0,-5.7,4.1
CSc1nc(N)n2nc(-c3ccccc3)cc2n1,-19.0,3.5%,-4.0,1.5,-5.0,1.6
CC(=O)c1ccc(S(=O)(=O)Nc2ccc(-c3cn4c(n3)SCC4)cc2)cc1,-8.1,-0.7%,-7.8,2.3,-1.4,-9.0
CC(=O)N=c1ncn(CC(COC(C)=O)OC(C)=O)c2nc[nH]c12 (stereo unspecified),1.5,-0.1%,-0.3,-0.2,2.6,-1.6
CCN=C1NN=C(c2ccc(C)cc2)CS1,3.3,-5.7%[38.3 µM],-32.6,0.2,-10.1,-6.7
Cc1cc(/C=C(\C#N)C(=O)OCC(=O)N(C)c2c(N)n(Cc3ccccc3)c(=O)[nH]c2=O)c(C)n1CC(C)C,-10.1,0.3%,-13.3,-0.6,-12.4,-3.5
CCCNc1nc(Cl)nc(NC(C)(C)C)n1,-14.8,1.5%,-18.8,0.5,-1.4,-2.6
CCc1cccc2c(C#N)cn(CCOc3ccccc3OC)c12,5.5,3.5%,3.7,1.5,7.6,1.4
COc1ccccc1NS(=O)(=O)c1ccc(C)c(C(N)=O)c1,11.7,-1.5%,-4.9,7.7,19.9,-2.1
O=C1NC[C@H](Cc2ccccc2)N(C[C@H]2CCCN2C[C@H](Cc2ccccc2)N2C[C@H](Cc3ccccc3)N(CCc3ccccc3)C(=O)C2=O)C1=O,-5.3,1.3%,-2.8,-0.2,-11.9,1.6
COC(=O)N(C)C[C@H]1OCc2cn(nn2)CCCC(=O)N([C@@H](C)CO)C[C@@H]1C,1.5,0.4%,-6.5,-0.6,8.2,-6.2
Cc1ccc(C(=O)OCC(=O)N2CC(=O)Nc3ccccc32)s1,0.0,-1.6%,-9.0,-0.5,0.0,-2.6
CCOC(=O)c1cnn(-c2ncnc3c2oc2ccccc23)c1N,5.5,5.4%,-6.9,1.8,-2.4,-1.1
CCCCCC/C=C/c1ccc([C@H]2[C@H]3C=CC[C@@H](C)[C@@H]3C(=O)N2Cc2ccccc2)c(F)c1,0.9,3.3%,-1.6,0.1,5.4,-2.6
O=C(Oc1cccc(C(=S)N2CCOCC2)c1)c1cccc([N+](=O)[O-])c1,2.5,3.4%,0.9,-0.2,-16.1,-0.1
